Sfp PPTase inh = qHTS Assay for Inhibitors of Bacillus subtilis Sfp phosphopantetheinyl transferase (PPTase) | Biochemical Sfp PPTase activity, qHTS | Potency, µM, inactives show max response, negative = inhibition, usual class: inhibitors | 3.5% of 310,000 active; active = well fitted inhibition curve with a large enough effect; inconclusive = small, poorly fitted or top-dose-only effect, or another doubt; inactive = no such curve, though single readings can be large or run the other way;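 note: the enzyme is Sfp with the accession as filed and its product quenches rhodamine fluorescence; potency is the fitted concentration of half-maximal effect; 0% = enzyme reaction without inhibitor and -100% = no enzyme wells; top concentration of the series not given in the record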
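Compounds were incubated with enzyme (final 15 nM) for 15 min at room temperature before substrate addition started the reaction. Fluorescence at 525 nm excitation, 598 nm emission was recorded immediately and after 30 minutes.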
Menin MLL FP FL = qHTS Assay for Inhibitors Targeting the Menin-MLL Interaction in MLL Related Leukemias: Competition With Fluorescein Labeled MLL-derived Peptide; Fluorescence polarization, fluorescein-MLL peptide displacement from menin; FP activity change, % at 61.4 µM; 290,000 tested, under 10 active; inconclusive = falling polarisation curve, or a change in total fluorescence; inactive = total fluorescence flat and polarisation flat or rising; no compound was filed as active; the % refers to the polarisation; negative = inhibition;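 note: % of control where 0% means no effect; inhibitors lower the polarisation; unlabelled MLL peptide was the positive control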
gsp ag = qHTS for Agonist of gsp, the Etiologic Mutation Responsible for Fibrous Dysplasia/McCune-Albright Syndrome: qHTS. gsp mutant cells, cAMP HTRF, 30 min; control for the full effect not named in the record. Potency, µM (titrated, usually from 76.9 µM), for inactives: at the top dose activation (cAMP increase), hits mostly activators. 0.13% of 340,000 active; active = well fitted activation curve with a large enough effect; inconclusive = small, poorly fitted or top-dose-only effect, or another doubt; inactive = no such curve, though single readings can be large or run the other way; cell line not stated here;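 note: phosphodiesterase inhibitor Ro 20-1724 added with compounds to block cAMP breakdown; potency is the fitted concentration of half-maximal effect; nearly all actives have a fitted effect of over 60% in size; about a fifth of the inactives were tested at one dose only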
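Cells stably selected in G418 were plated at 2000/well, grown 16-24 hr, then given compounds in DMSO with the PDE inhibitor […] (300 uM solution added) for 30 min at 37C; cAMP was read by HTRF.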
ClpP mod = qHTS Assay for Activators of ClpP; ATP-dependent Clp protease proteolytic subunit (Bacillus subtilis (strain 168)), P80244; purified B. subtilis ClpP, FRET peptide cleavage, 20 min; Potency, µM (top dose mostly 57.5 µM), for the others: at the highest dose activity change, negative = active; 1.9% of 340,000 active; active = well fitted falling curve with a large enough effect; inconclusive = small, poorly fitted or top-dose-only effect; inactive = no such curve, though single readings can be large or run the other way; note: potency is the fitted concentration of half-maximal effect; the source files actives as falling curves though it sought activators and does not explain the sign; nearly all actives have a fitted effect of over 65% in size; many hits overshoot -100%
Target sequence (P80244 whole entry, looked up): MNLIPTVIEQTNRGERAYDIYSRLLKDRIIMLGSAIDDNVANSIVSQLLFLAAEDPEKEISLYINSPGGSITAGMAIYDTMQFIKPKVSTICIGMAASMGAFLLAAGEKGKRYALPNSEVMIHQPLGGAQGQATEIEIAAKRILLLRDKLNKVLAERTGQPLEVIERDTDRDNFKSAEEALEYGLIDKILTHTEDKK
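FRET quenching reversal measured ClpP activation: 10 microg/mL B. subtilis ClpP at pH 8 with the FRET-FV decapeptide, read at 430 nm after 320 nm excitation. The 20-min minus 0-min signal was scaled between DMSO/no-enzyme wells and ADEP (5.8 microM final).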
TRPV1 potentiator = HTS Assay for Compounds that Act as Potentiators of the Vanilloid Receptor 1. TRPV1-expressing cells, Fluo-8 calcium influx, capsaicin EC20 potentiation; host cell line not named in the record; control for the full effect not named in the record. Transient receptor potential cation channel subfamily V member 1 (Homo sapiens), Q8NER1. 0.02% of 320,000 active. potentiation, % at 8.33 µM; active means potentiation above 80%; inconclusive means 30% to 80%; inactive means below 30%; note: 0% is about no effect
Target sequence (Q8NER1 whole entry, looked up): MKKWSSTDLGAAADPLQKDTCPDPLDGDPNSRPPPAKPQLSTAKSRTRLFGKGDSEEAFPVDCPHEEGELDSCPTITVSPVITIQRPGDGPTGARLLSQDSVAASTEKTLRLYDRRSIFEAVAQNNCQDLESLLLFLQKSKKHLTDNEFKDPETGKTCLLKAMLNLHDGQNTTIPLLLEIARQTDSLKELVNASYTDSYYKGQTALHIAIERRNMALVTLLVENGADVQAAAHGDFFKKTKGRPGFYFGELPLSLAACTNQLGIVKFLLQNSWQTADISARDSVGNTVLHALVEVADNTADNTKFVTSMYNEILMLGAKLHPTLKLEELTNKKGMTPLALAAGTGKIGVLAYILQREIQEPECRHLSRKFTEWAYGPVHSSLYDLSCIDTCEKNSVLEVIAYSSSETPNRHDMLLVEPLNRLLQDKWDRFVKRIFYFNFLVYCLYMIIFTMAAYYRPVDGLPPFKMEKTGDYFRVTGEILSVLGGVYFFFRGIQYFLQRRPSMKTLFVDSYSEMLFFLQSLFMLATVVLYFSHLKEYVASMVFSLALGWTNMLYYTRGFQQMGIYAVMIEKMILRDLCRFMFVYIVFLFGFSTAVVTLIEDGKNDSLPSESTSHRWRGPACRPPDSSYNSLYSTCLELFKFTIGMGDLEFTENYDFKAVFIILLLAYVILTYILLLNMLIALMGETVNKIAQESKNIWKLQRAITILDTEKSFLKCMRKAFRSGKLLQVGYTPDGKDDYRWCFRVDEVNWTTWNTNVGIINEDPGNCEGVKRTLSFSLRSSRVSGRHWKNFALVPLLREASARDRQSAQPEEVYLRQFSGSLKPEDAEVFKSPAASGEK
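Fluo-8 calcium influx in TRPV1-expressing cells, kinetic read (ex 480/em 520 nm). Compound added and read 3 min for agonist activity, followed by capsaicin at EC20 final and 2 min further read for enhancement.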
CtBP-E1A inh = qHTS Assay for Inhibitors of the CtBP/E1A Interaction | activity change, % (concentration not given with the values) | 0.49% of 340,000 active | AID 651724, 2012 | CtBP / adenovirus E1A interaction (AlphaScreen) | AlphaScreen GST-E1A/His-CtBP binding, 1536-well; hits give low values; control for the full effect not named in the record; in the data active means activity change below about -65%; inconclusive means about -30% to -65%; inactive means above about -30%; note: % is set by controls: 0 for no effect and ±100 for the full control effect
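Steps: dispense buffer (Tris pH 8.0, NaCl 300 mM, TCEP 1 mM, BSA, Tween 20); add 5X protein mix (GST-E1A, His-CtBP, 125 nM each); pin 23 nL compound; 2 h at 37 °C, dark; add 5X beads (50 ug/mL); 1 h; read.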
gsp antag = qHTS for Antagonists of gsp, the Etiologic Mutation Responsible for Fibrous Dysplasia/McCune-Albright Syndrome: qHTS | gsp-mutant cells, cAMP HTRF, 30 min; control for the full effect not named in the record | Potency, µM (series often up to 76.9 µM), for inactives: top-dose activity change, negative = inhibition, actives largely listed as inhibitors | 0.4% of 340,000 active; active = falling curve of any shape with a large fitted effect; inconclusive = falling curve, mostly with a smaller effect; inactive = flat or rising curve; cell line not stated here;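 note: intracellular cAMP measured with PDE inhibitor Ro 20-1724 present during compound exposure; potency is the fitted concentration of half-maximal effect; % is set by controls: 0 for no effect and ±100 for the full control effect; nearly all actives have a fitted effect of over 65% in size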
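Measurement of cellular cAMP by homogeneous time-resolved fluorescence following a 30 min compound exposure at 37C. The PDE inhibitor […] was present throughout; the assay buffer was DPBS with 0.05% BSA and 0.005% Tween 20.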
* = called active by the depositor; ? = inconclusive; / = not tested or not shown; [ ] = another dose, or the depositor's remark.

Molecule	Sfp PPTase inh	Menin MLL FP FL	gsp ag	ClpP mod	TRPV1 potentiator	CtBP-E1A inh	gsp antag
Cc1nc(NC2CCCC2)sc1C(=O)N(C)C	4%	6.3	-22%	-2.6%	6	8	9%
COc1ccc(OC)c(NC(=O)c2cc3ccccc3cc2OC)c1	-4%	1.7	-46%[inhibitor]	/	-6	-10	?
O=C(NCCc1ccccc1)c1ccc(CS(=O)(=O)Cc2ccccc2F)o1	21%	0.4	-3%	2.4%	-14	4	-13%
O=C(NCCc1ccccc1)C1CCN(C2CCN(C(=O)CC3=CCCCC3)CC2)CC1	15%	1.2	1%	/	1	0	5%
COC(=O)c1cc(NC2c3ccccc3C(=O)N2Cc2ccco2)cc(C(=O)OC)c1 (configuration not stated)	12%	0.4	-10%	-6.6%	10	4	-12%
COc1cc(NC(=O)c2cccc(Br)c2)nc(OC)n1	-8%	-1.6	11%[15.4 µM]	/	-17	4	1%
O=C(CN1C(=O)NC2(CCc3ccccc32)C1=O)NCc1cccc(C(F)(F)F)c1 (configuration not stated)	/	/	-33%[inhibitor]	/	/	1	9%
N#CC1(NC(=O)CSc2nnc(-c3ccccc3F)o2)CCCCC1	/	/	2%[15.4 µM]	/	5	7	7%
COc1ccc(NC(=O)CS(=O)CC(=O)Nc2cccc3cccnc23)cc1 (configuration not stated)	2%	0.8	7%	/	5	-1	5%
C[C@@H]1CN([C@@H](C)CO)C(=O)CCCn2nncc2CO[C@@H]1CN(C)C(=O)OCc1ccccc1	/	/	4%	1.3%	/	3	/
CC(=O)Nc1cccc(-c2cc(-c3c(Cl)cccc3Cl)no2)c1	4%	0.0	19%	-1.3%	-15	5	?
CC[N+](C)(CC)CCOC(=O)C1c2ccccc2Oc2ccccc21	12%	-1.8[24.8 µM]	/	0.5%	6	3	0%
COc1ccc(-c2ncncc2-c2csc(C)n2)c(O)c1OC	9%	-1.6	8%	-1.5%	4	0	15%
COCc1ccc(-c2ccc3c(c2)c(C#Cc2ccsc2)c(-c2cc(OC)cc(OC)c2)n3C)cc1	/	/	21%	3.7%	-8	13	6%
Cc1cccc2sc(NC(=O)c3ccc(OCC4CCCO4)cc3)nc12 (configuration not stated)	-23%	3.2	1%[15.4 µM]	1.4%	-1	9	-20%
Cc1cccc(OCC(=O)NS(=O)(=O)c2ccc(Br)cc2)c1	34%[activator]	/	0%	-2.8%	-29	-16	-8%
COCCN1CCN(C(=O)c2ccc3nc(Cc4ccccc4F)oc3c2)CC1	3%	/	-1%[15.4 µM]	?	8	-4	5%
S=c1[nH]nc(-c2ccc3ccccc3n2)n1-c1ccc(Cl)cc1	16%	-0.4	-1%[15.4 µM]	1.5%	15	-3	?
CC(=O)c1c(C)[nH]c(C(=O)CSc2nnc(CN3CCCCCC3=O)n2-c2ccccn2)c1C	9%	-1.3	-67%[inhibitor]	-0.3%	14	7	-4%
O=C(COc1ccc2ccc(=O)oc2c1)Nc1cc([N+](=O)[O-])ccc1F	/	/	-16%	-38%	10	3	12%
O=C(NCC1CCCO1)C(c1ccco1)N(Cc1ccc(F)cc1)C(=O)CN1C(=O)c2ccccc2S1(=O)=O (configuration not stated)	7%	3.9	-4%[15.4 µM]	-2.4%	24	13	-10%
CC(Oc1cc(F)ccc1[N+](=O)[O-])C(=O)N(C)CC(=O)Nc1ccccc1C(F)(F)F (configuration not stated)	11%	-2.6	-30%[15.4 µM]	/	-23	0	/
O=C(CSc1nc2ncccc2[nH]1)Nc1ccc2c(c1)OCO2	-10%	2.0	6%[15.4 µM]	/	-16	6	-20%
CCOC(=O)c1oc2ccccc2c1CN1CCN(C(=O)c2ccccc2)CC1	5%	2.9	11%	0.9%	-6	-12	-13%
COCCn1c(Sc2ccccc2)nc2c1c(=O)[nH]c(=O)n2C	13%	2.1	-35%[inhibitor]	0.1%	12	4	6%
Cc1ccccc1NC(=O)COC(=O)COc1ccc2ccc(=O)oc2c1	/	/	-22%	4.5%	/	28	/
CN1C(=O)CC(=O)N(C)c2cc(S(=O)(=O)N(C)Cc3ccccc3)ccc21	89µM*	/	-22%	-0.3%	4	10	3%
CC(=O)/C(=N/Nc1ccc([N+](=O)[O-])cc1)N1CCCc2ccccc21	-6%	6.2	8%[15.4 µM]	/	-7	2	-13%
O=C(O)C1CC=C(Cl)CC1C(=O)NCC1OCCc2ccccc21 (configuration not stated)	26%	3.2	-9%	-0.9%	8	3	0%
O=C(O)Cc1sc(NCc2ccco2)nc1-c1ccccc1	25µM*	5.2	8%	-4.8%	12	6	-2%
FC(F)(F)c1nc(N2CCCC2)ncc1-c1nnnn1-c1ccc(Cl)cc1	-8%	-2.1	-21%	-1.2%	-38	18	?
CC(C)COC(=O)N1CCCC1C(=O)O (configuration not stated)	-14%	-0.6	-3%	0.5%	-41	10	-5%
CCN(Cc1ccccc1)C(=O)COC(=O)c1cc(S(=O)(=O)Nc2ccccc2OC)ccc1O	/	/	-3%	-17%	/	/	-23%
Cc1cc(S(=O)(=O)N2CCOCC2)ccc1F	3%	0.3	?	0.5%	-1	3	0%
CCCNC(=O)Cn1cnc2sc(C(=O)Nc3ccc4c(c3)OCO4)c(C)c2c1=O	-5%	0.5	25%	-14%	/	11	-1%
CC(C)[C@H]1C(=O)Nc2ccccc2N1C(=O)N[C@@H](Cc1ccccc1)C(=O)N[C@@H](Cc1ccccc1)C(=O)O	5%	-7.4	/	-0.6%	6	24	8%
CSc1ccc(NC(=O)CSc2nc3[nH]c(=O)cc(O)c3s2)cc1	/	/	?	-5.0%	3	/	-4%
Cc1cc(C)nc(SCC(=O)c2cc3ccccc3oc2=O)n1	18µM*	?	15%	0.6%	-1	0	-8%
CC(C)(C)C(=O)COC(=O)c1cc(S(=O)(=O)N2CCCCC2)ccc1N1CCOCC1	/	/	-7%	-1.6%	-6	5	-8%
C=CCn1cccc(C(=O)Nc2ccc(OC)cc2OC)c1=O	-21%	-0.8	6%[15.4 µM]	/	?	4	2%
COc1ccc(C(=O)Oc2cc(C(=S)N3CCOCC3)ccc2OC)cc1	-5%	2.2	-31%[15.4 µM]	/	5	-16	6%
CCCC(=O)N1CCC(CCC(=O)NC2CC2)CC1	11%	-0.1	-3%	-0.6%	-8	/	2%
O=C(Nc1ccccc1F)C1CCCN(S(=O)(=O)c2cccc3cccnc23)C1 (configuration not stated)	18%	4.8	?	-1.7%	/	-2	-11%
O=C1/C(=C/c2ccc([N+](=O)[O-])cc2)Oc2cc(O)ccc21	-10%	?	1%[15.4 µM]	0.5%	-8	8	22µM*
O=C(CSC(=S)N1CCCCC1)N1N=CCC1c1ccccc1 (configuration not stated)	-4%	2.6	-10%	-0.4%	-27	2	0%
CCN(c1ccc(C(=O)CSc2nnc(C3CC3)n2C2CC2)cc1)S(C)(=O)=O	/	/	-31%[inhibitor]	0.9%	21	8	1%
Cc1nc(SCC(=O)Nc2nnc(C(C)C)s2)n[nH]1	9%	-3.4	-21%	/	-1	-4	4%
CCOC(=O)[C@@H]1[C@H]2COc3cc(OC)ccc3[C@H]2N2C(=O)N(c3ccc(F)cc3)C(=O)[C@]12C	11%	-6.2	/	-0.3%	-10	1	-12%
CCOC(=O)C1=C(C)NC(C)=C(C(=O)OCC)C1C(=O)O	11%	1.0	-11%	0.4%	-12	4	-5%
CCCCNC(=O)Nc1nc(SCC(=O)OCC)n[nH]1	4%	0.2	-6%	0.2%	1	5	-19%

Other records follow:
Molecule	Sfp PPTase inh	Menin MLL FP FL	gsp ag	ClpP mod	TRPV1 potentiator	CtBP-E1A inh	gsp antag
Cc1ccc(-c2cn(-c3ccccc3)c(=S)[nH]2)cc1C	-24%	3.2	9%[15.4 µM]	/	4	-14	0%
O=S(=O)(c1ccccc1)N1CCN(C(=S)Nc2ccccc2)CC1	2%	/	15%	-2.4%	-13	1	-13%
CC#CCC(CC#CC)c1nc2ccccc2c(=O)n1N	0%	4.5	2%[15.4 µM]	-1.0%	4	6	9%
COC(=O)c1c(-c2ccccc2)csc1N	?	3.0	2%	-0.9%	9	-21	-3%
COc1ccc(OC)c(C2CC(=O)N3CN(c4ccccc4F)CSC3=C2C#N)c1 (configuration not stated)	?	-10	-2%	1.6%	-4	-11	-14%
CCOC(=O)OC(C)OC(=O)[C@@H]1N2C(=O)[C@@H](NC(=O)[C@H](N)c3ccccc3)[C@H]2SC1(C)C (some centres not stated)	/	/	/	-7.4%	-15	2	1%
Cc1nnsc1C(=O)Nc1cccc(Cl)c1	5%	-1.0	-1%	/	15	8	6%
Cc1ccc(CNC(=O)CCC(=O)Nc2nnc(C)s2)cc1	9%	/	-11%	0.9%	5	/	5%
C=C(C)C(=O)Nc1cccc(C2=NOC3(C2)C[C@@H](C(N)=O)N(C(=O)c2ccc(OC)cc2)C3)c1 (some centres not stated)	13%	2.5	8%	-4.4%	-1	/	-4%
CC(=O)Nc1ccc(S(=O)(=O)NCc2nc(-c3ccccc3C)no2)cc1	24%	0.1	-1%	/	1	-9	0%
CC1CCc2c(sc3c2C2=NS(=O)(=O)CCN2C=N3)C1 (configuration not stated)	7%	3.3	16%	-9.8%	-13	-12	-3%

One compound at a time (already shown). Order of values: Sfp PPTase inh | Menin MLL FP FL | gsp ag | ClpP mod | TRPV1 potentiator | CtBP-E1A inh | gsp antag
`CC(=O)Nc1ccc(S(=O)(=O)NCc2nc(-c3ccccc3C)no2)cc1` is listed as 24% | 0.1 | -1% | / | 1 | -9 | 0%
`CCOC(=O)OC(C)OC(=O)[C@@H]1N2C(=O)[C@@H](NC(=O)[C@H](N)c3ccccc3)[C@H]2SC1(C)C` (some centres not stated) is listed as / | / | / | -7.4% | -15 | 2 | 1%

Random draw from the library; any-hit rate near 5.3%.
